D3 antag = antagonists of human D3 dopamine receptor; 360,000 tested, 2.5% active; D3R cells, DiscoveRx beta-arrestin luminescence, antagonist mode; active compounds read low; max response, negative = inhibition, %; AID 652054; in the data active = max response below about -50%; inconclusive = no clear call, values can overlap the other calls; also: % is scaled to controls: 0 for no effect and ±100 for the full control effect; mostly tested at two doses, the higher about 12 µM
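Cells expressing the human receptor were seeded at 1500 cells/well, incubated overnight at 37 degrees C in 5% CO2, then exposed to library compounds with dopamine controls for 90 minutes at 37 degrees C before luminescent detection.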
KB-3-1 tox = KB-3-1 parental cell cytotoxicity; KB-3-1 viability, CellTiter-Glo ATP luminescence, 72 h; Potency, µM (top dose mostly 46.1 µM), inactives show top-dose activity change, negative = cytotoxic, actives largely listed as cytotoxic; 400,000 tested, 1.4% active; also: potency is read from the fitted curve at half-maximal effect; % is scaled to controls: 0 for no effect and ±100 for the full control effect; nearly all actives have a fitted effect of over 60% in size
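Cytotoxicity in the drug-sensitive parental line KB-3-1 was scored as loss of CellTiter-Glo luminescence following 72 h incubation with compound. Values come from curve fitting of normalized concentration-response data.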
GLP1R ag = agonists of human GLP-1 receptor; P43220; HEK293 GLP-1R CRE-luciferase, luminescence, 4-6 h; cells express a hypersensitive GLP-1R form; Potency, µM (titrated, usually from 45.6 µM), for inactives: top-dose activation, most hits filed as activators; 380,000 tested, 0.007% active; AID 624172; also: potency is read from the fitted curve at half-maximal effect; % of control where 0% means no effect
Target sequence (P43220 whole entry, looked up): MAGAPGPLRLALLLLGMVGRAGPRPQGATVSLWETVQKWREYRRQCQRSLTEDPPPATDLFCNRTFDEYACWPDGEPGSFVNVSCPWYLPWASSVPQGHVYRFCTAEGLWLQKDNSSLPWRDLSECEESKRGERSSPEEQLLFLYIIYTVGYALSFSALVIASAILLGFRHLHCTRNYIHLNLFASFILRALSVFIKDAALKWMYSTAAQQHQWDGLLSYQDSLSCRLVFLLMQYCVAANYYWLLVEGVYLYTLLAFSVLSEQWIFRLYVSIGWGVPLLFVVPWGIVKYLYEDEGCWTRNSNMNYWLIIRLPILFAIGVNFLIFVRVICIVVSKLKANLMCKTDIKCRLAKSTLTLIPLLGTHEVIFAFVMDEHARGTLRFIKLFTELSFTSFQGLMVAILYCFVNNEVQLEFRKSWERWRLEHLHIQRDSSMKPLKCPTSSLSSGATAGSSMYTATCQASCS
SW480 rereplic = induces DNA re-replication in SW480 colon adenocarcinoma cells. SW480 DNA re-replication, Hoechst DNA content imaging, 48 h. Potency, µM (titrated, usually from 46.1 µM), without a hit: top-dose re-replication activation, actives largely listed as activators. 340,000 tested, 1.8% active; also: potency is read from the fitted curve at half-maximal effect; % of control where 0% means no effect; nearly all actives have a fitted effect of over 55% in size
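Compounds, transferred as 23 nL by pin tool, were incubated with cells for 48 hr; DNA content per nucleus was then quantified by Hoechst staining and fluorescence plate imaging.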
D3 ag = D3 dopamine receptor (human) agonism; P35462; D3R DiscoveRx beta-arrestin cells, luminescence, 90 min; max activation, %; 410,000 tested, 0.58% active; in the data active = max activation above about 30%; also: 0% is about no effect; mostly tested at two doses, the higher about 12 µM
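Agonist-mode cell screen: cells plated at 1500/well and incubated overnight at 37 °C, then exposed to library compounds for 90 min at 37 °C. Detection reagent was added for 30–60 min at room temperature, and luminescence was read.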
KB-V1 MDR tox = kills drug-selected multidrug resistant KB-V1 cells. KB-V1 MDR cells viability, CellTiter-Glo, 72 h. Potency, µM (doses to about 46.1 µM), without a hit: at the highest dose activity change, negative = cytotoxicity, hits mostly cytotoxic. 400,000 tested, 3.4% active; also: potency is read from the fitted curve at half-maximal effect; % is scaled to controls: 0 for no effect and ±100 for the full control effect; nearly all actives have a fitted effect of over 60% in size
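Readout: CellTiter-Glo luminescence, 10 min after addition. Cells: KB-V1 MDR subline, 72 h at 37 degrees C with compound. Analysis: corrected, normalized data fitted to concentration-effect curves.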
IL-1B inflam inh = blocks inflammasome-driven IL-1 beta release. AID 743279. activity change, % at 57.5 µM. THP-1 LPS/ATP IL-1B secretion, AlphaLISA, 16 h; active compounds read low. 360,000 tested, 4.7% active; in the data active = activity change below about -50%; inconclusive = mostly about -30% to -49%; also: % is scaled to controls: 0 for no effect and ±100 for the full control effect
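Secreted IL-1B measured by AlphaLISA bead assay after 16 h compound exposure of THP-1 cells; compounds (final up to 57.5 uM) added 1 h before LPS (250 ng/mL) and ATP (1.25 mM) stimulation; lower signal means less secretion.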
* hit, by the source's call; ? = inconclusive; · = no result given; & = joins results of further samples; ! = not active in a repeat; [ ] = remark or other dose. Unless noted, calls follow the shape of the dose curve; as a rule, active = well fitted curve in the direction sought with a large enough effect; inconclusive = small, poorly fitted or top-dose-only effect, or another doubt; inactive = no such curve, though single readings can be large; an effect the other way counts as inactive or inconclusive.

Second line of a record – D3 antag, KB-3-1 tox, GLP1R ag, SW480 rereplic, D3 ag, KB-V1 MDR tox, IL-1B inflam inh
CN(Cc1cnc2nc(N)nc(N)c2n1)c1ccc(C(=O)N[C@@H](CCC(=O)O)C(=O)O)cc1
 : -9&-9, 0.065µM*!, 13%&-3%&-4%, ?, 0&3&6, 0.029µM*!, 20&-23
CCCCOC(=O)COc1ccc(Cl)cc1Cl
 : 11, 0%, 0%, -10%, 1, 17%, 12
Cc1ccccc1C(=O)Nc1ccccc1
 : 0, 14%, -7%, 2%, 0, ?, -4
CCN1CCN(c2cc3c(cc2F)c(=O)c(C(=O)O)cn3C2CC2)CC1
 : -11, 0%, -4%&4%, 1%, 15&6, -13%, 23
CN(C)c1ccc(O)c2c1CC1CC3[C@@H](N(C)C)C(=O)C(C(N)=O)=C(O)[C@]3(O)C(=O)C1=C2O (some centres not stated)
 : -8, 0%, -2%, -5%, 4, -24%, -8
CCc1ccc(C(c2ccc(CC)cc2)C(Cl)Cl)cc1
 : -110*, 0%, 2%, 5%, 0, 0%, 2
FC(F)(F)c1nc2ccccc2[nH]1
 : -8, 0%, -9%, ?, 0, 4%, 7
O=C(Nc1nccs1)c1cccnc1
 : 20, 0%, -8%, -2%, 9, ?, -6
O=[N+]([O-])c1ccccc1Nc1ccccc1
 : 2, 1%, 4%, -2%, -3, 5%, -3
CCCC1C(=O)N2C(N(C)C)=Nc3ccc(C)cc3N2C1=O (configuration not stated)
 : 10, 0%, 8%, -5%, 19&2, -8%, -26
CCC[C@H]1C(=O)N2C(N(C)C)=Nc3ccc(C)cc3N2C1=O
 : ·, ·, 3%[19.8 µM], -6%[20.6 µM], ·, ·, ·
O=C(Nc1ccccc1)N1CCOCC1
 : 20, 26%, 9%, -1%, 0, 9%, -2
CC(=O)OCC(=O)[C@@]1(O)[C@H](C)C[C@@H]2[C@H]3CCC4=CC(=O)C=C[C@]4(C)[C@]3(F)[C@@H](O)C[C@@]21C
 : ·, ·, -6%[19.8 µM], -2%[20.6 µM], ·, ·, ·
COc1ccc2nc(NC(=O)CCc3ccc(OC)c(OC)c3)sc2c1
 : 0, 2%, -2%, -8%, -1, 13%, -10
O=c1[nH]cnc2scc(-c3ccccc3)c12
 : ?, 6%, 2%, 0%, -6, 3%, -17
Cc1cccn2c(=O)c3cc(C(=O)NCCc4ccccc4)c(=N)n(CCCn4ccnc4)c3nc12
 : -25, ?, -2%, 4%, 5, 18%, -28
OC[C@@H](O)[C@@H](O)[C@H](O)[C@H](O)CO
 : 2, 0%, 17%&3%, -39%&-6%[inhibitor], 17&3, 19%, 13
COC(=O)c1ccc(C)cc1
 : 12, 28%, -7%, 2%, 2, -17%, -8
Clc1ccc(N2CCN(Cc3c[nH]c4ncccc34)CC2)cc1
 : -78*, 0%, 31%, -3%, ·, -29%, 14
OCC(O)C(O)C(O)C(O)CO (configuration not stated)
 : ·, ·, 4%&9%, -8%&2%, ·, ·, ·
OC[C@@H](O)[C@@H](O)[C@H](O)[C@@H](O)CO
 : 0, 0%, 1%, -27%, 0, ?, 17
Oc1ccc2cccnc2c1
 : -6, 18%, 12%, -11%, -4, 32%, 32
Cn1c(SCc2c(Cl)cccc2Cl)nnc1-c1ccc2nonc2c1
 : -16, 3%, 10%, 12%, -8, -25%, -29
CC(=O)NC(CCC(=O)O)C(=O)O (configuration not stated)
 : 21, 0%, -2%, ?, 4, 9%, -5
O=C(O)c1cc(O)ccc1O
 : -9, 0%, -3%, -9%, 2, -4%, 9
CN(C)c1ccc(O)c2c1C[C@@H]1C[C@H]3C(N(C)C)C(=O)C(C(N)=O)=C(O)[C@@]3(O)C(=O)C1=C2O (some centres not stated)
 : ·, ·, -1%, ·, ·, ·, ·
O=C(O)C(O)c1ccccc1 (configuration not stated)
 : 0&10, 0%&0%, 22%&-1%&13%, -7%&-5%&-3%, -21&5, 4%&24%, 42&2
NC(N)=S
 : 17, 0%, 0%, 2%, 10, 7%, 12
CC(N=C(NC#N)Nc1ccncc1)C(C)(C)C (configuration not stated)
 : -11&-17, ?, 2%&-3%&-3%, -2%&-40%&-10%&-19%, 12&-24&4, ?, -15&21
CN(C)CCC(c1ccc(Cl)cc1)c1ccccn1 (configuration not stated)
 : 0&23, 0%&0%, -4%&-3%&-1%, ?, 0&-28, -17%&-24%, -25&-26
CC(C(=O)Nc1ccc(Cl)cc1)c1ncc(C(F)(F)F)cc1Cl (configuration not stated)
 : -28, -15%, -17%, ?, 0, 26µM*, -12

4 entries from above, with each value named:
> CC(C(=O)Nc1ccc(Cl)cc1)c1ncc(C(F)(F)F)cc1Cl (configuration not stated)
- D3 antag = -28
- KB-3-1 tox = -15%
- GLP1R ag = -17%
- SW480 rereplic = ?
- D3 ag = 0
- KB-V1 MDR tox = 26µM*
- IL-1B inflam inh = -12
> CCC[C@H]1C(=O)N2C(N(C)C)=Nc3ccc(C)cc3N2C1=O
- D3 antag = ·
- KB-3-1 tox = ·
- GLP1R ag = 3%[19.8 µM]
- SW480 rereplic = -6%[20.6 µM]
- D3 ag = ·
- KB-V1 MDR tox = ·
- IL-1B inflam inh = ·
> OCC(O)C(O)C(O)C(O)CO (configuration not stated)
- D3 antag = ·
- KB-3-1 tox = ·
- GLP1R ag = 4%&9%
- SW480 rereplic = -8%&2%
- D3 ag = ·
- KB-V1 MDR tox = ·
- IL-1B inflam inh = ·
> CN(C)CCC(c1ccc(Cl)cc1)c1ccccn1 (configuration not stated)
- D3 antag = 0&23
- KB-3-1 tox = 0%&0%
- GLP1R ag = -4%&-3%&-1%
- SW480 rereplic = ?
- D3 ag = 0&-28
- KB-V1 MDR tox = -17%&-24%
- IL-1B inflam inh = -25&-26

Reprinted at random: three entries already listed, in no set order.
Second line of a record – D3 antag, KB-3-1 tox, GLP1R ag, SW480 rereplic, D3 ag, KB-V1 MDR tox, IL-1B inflam inh
Clc1ccc(N2CCN(Cc3c[nH]c4ncccc34)CC2)cc1
 : -78*, 0%, 31%, -3%, ·, -29%, 14
COC(=O)c1ccc(C)cc1
 : 12, 28%, -7%, 2%, 2, -17%, -8
OC[C@@H](O)[C@@H](O)[C@H](O)[C@H](O)CO
 : 2, 0%, 17%&3%, -39%&-6%[inhibitor], 17&3, 19%, 13

Already shown: four of the compounds above.
Second line of a record – D3 antag, KB-3-1 tox, GLP1R ag, SW480 rereplic, D3 ag, KB-V1 MDR tox, IL-1B inflam inh
CN(Cc1cnc2nc(N)nc(N)c2n1)c1ccc(C(=O)N[C@@H](CCC(=O)O)C(=O)O)cc1
 : -9&-9, 0.065µM*!, 13%&-3%&-4%, ?, 0&3&6, 0.029µM*!, 20&-23
CCCCOC(=O)COc1ccc(Cl)cc1Cl
 : 11, 0%, 0%, -10%, 1, 17%, 12
Cc1ccccc1C(=O)Nc1ccccc1
 : 0, 14%, -7%, 2%, 0, ?, -4
CCN1CCN(c2cc3c(cc2F)c(=O)c(C(=O)O)cn3C2CC2)CC1
 : -11, 0%, -4%&4%, 1%, 15&6, -13%, 23

Source: PubChem (National Center for Advancing Translational Sciences (NCATS))

The list is partial; the hit share may differ from the screen's.
